Source: PubChem BioAssay (several laboratories)
UUG fidelity – alters start codon recognition fidelity in yeast | S. cerevisiae UUG-firefly luciferase reporter, luminescence/redox ratio | activity score, % at 18.7 µM | 350,000 tested, 0.13% active | AID 602363;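 active means replicate mean at a twofold rise or more, about +100% in these data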;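 further: firefly luciferase made from a UUG start codon reports start codon fidelity; reporter light over untreated wells divided by growth signal over untreated wells; some hits fall short of that in this replicate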
Env fusion inh – inhibitors of HIV Env-mediated cell fusion. HeLa-JRFL Env/CEM21 cell fusion, luciferase. inhibition, % at 12.3 µM. 360,000 tested, 1.1% active. AID 651610;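 active means mean replicate inhibition score of at least 50 and every replicate individually at or above 50; inconclusive means only one of the two criteria met; inactive means mean below 50 and not all replicates reaching 50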;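 further: 0% = plate neutral controls and 100% = maraviroc near 300 nM; one replicate is shown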
Rce1 inhib – blocks yeast Ras-converting enzyme. Q03530. yeast membranes, quenched prenylated peptide cleavage fluorescence. calls only. 290,000 tested, 0.27% active;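 active means fall in fluorescence gain of 50% or more versus controls, with final raw signal at or below 3038400; inconclusive means same 50% fall but final raw signal above 3038400; inactive means fall in fluorescence gain under 50%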;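 further: plate controls were neutral control wells for no effect and wells lacking membranes for full effect; tested at 10 µM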
Target sequence (Q03530 whole entry, looked up): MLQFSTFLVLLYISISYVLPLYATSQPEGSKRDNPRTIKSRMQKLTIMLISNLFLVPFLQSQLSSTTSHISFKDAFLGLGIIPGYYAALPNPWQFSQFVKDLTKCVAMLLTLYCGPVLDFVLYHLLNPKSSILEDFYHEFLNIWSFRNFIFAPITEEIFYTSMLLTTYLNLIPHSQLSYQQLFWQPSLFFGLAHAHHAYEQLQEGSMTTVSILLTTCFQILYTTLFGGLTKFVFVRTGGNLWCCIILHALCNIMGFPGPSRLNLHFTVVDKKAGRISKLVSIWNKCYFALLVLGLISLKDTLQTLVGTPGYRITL
MT1-MMP act inh – inhibitors of human MT1-MMP activation; GFP/RFP ratio change, % at 20 µM; P50281; 360,000 tested, 0.061% active; AID 651647; HT1080 RFP-PRO-GFP cells, GFP/RFP ratio fluorescence, overnight; percent of plate control window, DMSO zero;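 active means GFP/RFP ratio change of at least 30% with cell ATP level not reduced by more than half and red fluorescence within 50% of control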; further: strong numbers were not always called active
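Assay system – RFP-PRO-GFP reporter HT1080 cells · Compound dosing – single dose of 20 µM compound, 1% DMSO final · Incubation – overnight compound exposure at 37 °C · Measure – GFP/RFP fluorescence ratio · Benchmarks – DMSO wells and RFP-L50D-GFP cells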
PABP FP inh – PABP-poly(A) binding inhibition. inhibition, % at 35 µM. PABP-poly(A) RNA binding, fluorescence polarization. 290,000 tested, 1% active. P11940;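 active means 50% or more with normal probe brightness, or confirmed in later tests; inconclusive means above 50% with abnormal brightness, or retests that disagree; inactive means below 50% or failed in later tests; about a fifth of its hits are not listed in these tables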;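 further: calls also rest on retests at 20 µM and on dose response follow-up; controls were probe without protein and protein plus probe with vehicle; some compounds called inactive have numbers as strong as hits; many hits fall short of the cut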
Target sequence (P11940 whole entry, looked up): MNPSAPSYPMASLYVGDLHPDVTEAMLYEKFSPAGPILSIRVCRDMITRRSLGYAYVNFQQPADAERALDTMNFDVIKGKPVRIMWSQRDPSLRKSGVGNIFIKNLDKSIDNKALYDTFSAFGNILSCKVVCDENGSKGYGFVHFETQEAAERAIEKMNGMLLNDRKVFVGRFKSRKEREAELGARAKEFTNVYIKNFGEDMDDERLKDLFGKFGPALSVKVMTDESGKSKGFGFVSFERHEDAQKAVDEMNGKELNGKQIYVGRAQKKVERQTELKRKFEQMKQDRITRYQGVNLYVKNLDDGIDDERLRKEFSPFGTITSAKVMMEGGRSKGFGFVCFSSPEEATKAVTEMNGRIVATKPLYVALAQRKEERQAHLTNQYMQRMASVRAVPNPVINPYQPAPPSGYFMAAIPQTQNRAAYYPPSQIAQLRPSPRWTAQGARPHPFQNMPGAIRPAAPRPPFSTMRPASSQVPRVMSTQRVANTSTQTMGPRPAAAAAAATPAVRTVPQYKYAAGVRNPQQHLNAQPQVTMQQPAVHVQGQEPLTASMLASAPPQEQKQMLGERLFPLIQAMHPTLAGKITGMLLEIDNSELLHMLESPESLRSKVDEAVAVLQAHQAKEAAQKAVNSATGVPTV
CSC inhib – blocks cancer stem cells; cancer stem cell-like cells viability, luminescence; 300,000 tested, 1.1% active; AID 2717; inhibition, % at 7.5 µM;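 active means mean at 75% or more and at least half the replicates too; inconclusive means mean and replicates disagree; tested in HMLE shEcad cells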;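 further: 0% = median of negative and 100% = median of positive control wells; the first replicate is given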
eIF4H inh – inhibitors of RNA binding by human eIF4H | Q15056 | eIF4H fluorescence polarization binding assay | inhibition, % at 35 µM | 290,000 tested, 0.94% active | AID 2012;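 active means 50% or more with normal probe brightness, or confirmed in later tests; inconclusive means above 50% with abnormal brightness, or retests that disagree; inactive means below 50% or failed in later tests; about a fifth of its hits are not listed in these tables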;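 further: calls also rest on retests at 20 µM and on dose response follow-up; 0% = protein and probe with vehicle and 100% = probe without protein; strong numbers were not always called active; many hits fall short of the cut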
MT1-MMP act inh RFP – also measured in MT1-MMP act inh; calls as there; RFP signal change, %; measured here: RFP expression control read;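 0 = vehicle wells; hits needed this value within 50% of zero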
Numbers without * were called inactive.

How did CCN(c1cccc(C)c1)S(=O)(=O)c1ccc(-n2cccn2)cc1 do in these assays?
UUG fidelity: -4; Env fusion inh: -3; Rce1 inhib: inactive; MT1-MMP act inh: 1; PABP FP inh: 2; CSC inhib: -9; eIF4H inh: -12; MT1-MMP act inh RFP: -3

What do the screens show for `COc1nc(NCC(C)C)nc(Oc2ccc(OCc3ccccc3)nn2)n1`?
UUG fidelity: -2; Env fusion inh: -3; Rce1 inhib: inactive; MT1-MMP act inh: 6; PABP FP inh: -8; CSC inhib: 3; eIF4H inh: 0; MT1-MMP act inh RFP: -1

How did COc1ccc(/C=C/C(=O)N2CCCc3ccccc32)c(OC)c1 do in these assays?
UUG fidelity: -12; Env fusion inh: 1; Rce1 inhib: inactive; MT1-MMP act inh: 0; PABP FP inh: 5; CSC inhib: 6; eIF4H inh: -13; MT1-MMP act inh RFP: -2

How did Cc1cc(C)cc(Cn2c3ccc(NC(=O)NCc4ccc(F)cc4)cc3c(=O)n2C)c1 do in these assays?
UUG fidelity: -21; Env fusion inh: -15; MT1-MMP act inh: 6; MT1-MMP act inh RFP: 1

How did Cc1ccc(N2C(=O)N(CC(=O)Nc3cccc(Cl)c3)C(=O)C2C)cc1 (stereo not given) do in these assays?
Env fusion inh: 11; Rce1 inhib: inactive; MT1-MMP act inh: 0; CSC inhib: -10; MT1-MMP act inh RFP: -4

What do the screens show for `CC1=CC(c2ccc(Cl)cc2)n2nc(N3C(=O)CCC3=O)nc2N1` (stereo not given)?
UUG fidelity: 1; Rce1 inhib: inactive; MT1-MMP act inh: -3; PABP FP inh: 16; eIF4H inh: -2; MT1-MMP act inh RFP: 3

Results for Cc1cc(C)n(-c2ccc(C(=O)C(C#N)c3nc4ccccc4n3C)cc2)n1 (stereo not given) ?
UUG fidelity: -13; Env fusion inh: 34; Rce1 inhib: inactive; MT1-MMP act inh: 7; PABP FP inh: 4; CSC inhib: 11; eIF4H inh: -1; MT1-MMP act inh RFP: -3

Results for CCOc1ccc(NC(=S)NCCCc2ccccc2)cc1 ?
UUG fidelity: -33; Env fusion inh: -26; Rce1 inhib: inactive; MT1-MMP act inh: 1; PABP FP inh: 2; CSC inhib: -7; eIF4H inh: -6; MT1-MMP act inh RFP: 1

Results for O=CNC1c2ccccc2CCc2ccccc21 ?
UUG fidelity: -31; Env fusion inh: 2; MT1-MMP act inh: 0; MT1-MMP act inh RFP: 1

How did COc1ccc(S(=O)(=O)N2CCCC2)c(C)c1C do in these assays?
UUG fidelity: -23; Env fusion inh: -61; MT1-MMP act inh: -2; PABP FP inh: 2; CSC inhib: -2; eIF4H inh: 0; MT1-MMP act inh RFP: -1

Results for O=C(NCC1CCCO1)c1ccc2c(c1)N(Cc1ccccc1)C(=O)CS2=O (stereo not given) ?
UUG fidelity: 13; Env fusion inh: -3; Rce1 inhib: inactive; MT1-MMP act inh: -1; PABP FP inh: 3; CSC inhib: -18; eIF4H inh: 9; MT1-MMP act inh RFP: 4

Results for Cc1ccc(-c2cc3nc(NCCOc4ccccc4Cl)n(C)c(=O)c3s2)cc1 ?
UUG fidelity: -13; Env fusion inh: -3; MT1-MMP act inh: 2; MT1-MMP act inh RFP: 0

Results for CC(C)C(=O)c1cc2c(cc1NC(=O)c1cccs1)OCCO2 ?
UUG fidelity: -15; Env fusion inh: 1; Rce1 inhib: inactive; MT1-MMP act inh: -7; PABP FP inh: 1; CSC inhib: -4; eIF4H inh: 7; MT1-MMP act inh RFP: -10

How did O=C(COC(=O)c1ccc(NS(=O)(=O)c2ccc3c(c2)OCCO3)cc1)NC1CCS(=O)(=O)C1 (stereo not given) do in these assays?
Env fusion inh: 2; Rce1 inhib: inactive; MT1-MMP act inh: 0; PABP FP inh: 15; CSC inhib: -4; eIF4H inh: -4; MT1-MMP act inh RFP: -1

How did Cc1ccc(Oc2ccccc2NC(=O)CN2C(=O)NC3(CCCC3)C2=O)cc1 do in these assays?
UUG fidelity: 5; Env fusion inh: 8; Rce1 inhib: inactive; MT1-MMP act inh: 2; PABP FP inh: 13; eIF4H inh: -8; MT1-MMP act inh RFP: -3

Gathered by group: the entries above with a thiophene ring, fused or not.
Results for Cc1ccc(-c2cc3nc(NCCOc4ccccc4Cl)n(C)c(=O)c3s2)cc1 ?
UUG fidelity: -13; Env fusion inh: -3; MT1-MMP act inh: 2; MT1-MMP act inh RFP: 0

Results for CC(C)C(=O)c1cc2c(cc1NC(=O)c1cccs1)OCCO2 ?
UUG fidelity: -15; Env fusion inh: 1; Rce1 inhib: inactive; MT1-MMP act inh: -7; PABP FP inh: 1; CSC inhib: -4; eIF4H inh: 7; MT1-MMP act inh RFP: -10

The listing picks up, starting two compounds before the break.
How did O=C(COC(=O)c1ccc(NS(=O)(=O)c2ccc3c(c2)OCCO3)cc1)NC1CCS(=O)(=O)C1 (stereo not given) do in these assays?
Env fusion inh: 2; Rce1 inhib: inactive; MT1-MMP act inh: 0; PABP FP inh: 15; CSC inhib: -4; eIF4H inh: -4; MT1-MMP act inh RFP: -1

How did Cc1ccc(Oc2ccccc2NC(=O)CN2C(=O)NC3(CCCC3)C2=O)cc1 do in these assays?
UUG fidelity: 5; Env fusion inh: 8; Rce1 inhib: inactive; MT1-MMP act inh: 2; PABP FP inh: 13; eIF4H inh: -8; MT1-MMP act inh RFP: -3

Results for CC(C)c1ccc(NC(=O)CCc2ccccc2)cc1 ?
UUG fidelity: -2; Env fusion inh: -33; Rce1 inhib: inactive; MT1-MMP act inh: -4; PABP FP inh: 13; CSC inhib: inconclusive; eIF4H inh: 1; MT1-MMP act inh RFP: -13

How did CC1CSc2nc3sc4c(c3c(=O)n21)CCCC4 (stereo not given) do in these assays?
UUG fidelity: 6; Rce1 inhib: inactive; MT1-MMP act inh: 0; PABP FP inh: 3; eIF4H inh: -2; MT1-MMP act inh RFP: -4

Results for Cc1ccnn1-c1ccc(C(=O)NCC(c2ccco2)N2CCCC2)cc1 (stereo not given) ?
UUG fidelity: -14; MT1-MMP act inh: 7; CSC inhib: 10; MT1-MMP act inh RFP: 3

Results for Cc1ccc(C)c(NC(=O)c2ccc(OCc3c(C)noc3C)cc2)c1 ?
UUG fidelity: -17; MT1-MMP act inh: 3; CSC inhib: -16; MT1-MMP act inh RFP: -4

What do the screens show for `CCCCN(C)CCNS(=O)(=O)c1ccc2c(c1)n(C)c(=O)c(=O)n2C`?
UUG fidelity: -21; Env fusion inh: -13; Rce1 inhib: inactive; MT1-MMP act inh: 0; PABP FP inh: 5; CSC inhib: 0; eIF4H inh: -6; MT1-MMP act inh RFP: 7

What do the screens show for `CSc1nc(C)[nH]c(=O)c1C#N`?
Env fusion inh: 1; Rce1 inhib: inactive; MT1-MMP act inh: 3; PABP FP inh: 5; CSC inhib: -10; eIF4H inh: 1; MT1-MMP act inh RFP: 1

Results for COc1ccc(-n2ncc(C(C)NS(=O)(=O)c3cccs3)c2C)cc1 (stereo not given) ?
UUG fidelity: -13; Env fusion inh: -3; Rce1 inhib: inactive; MT1-MMP act inh: 2; PABP FP inh: 18; CSC inhib: 23; eIF4H inh: 4; MT1-MMP act inh RFP: -2

What do the screens show for `CC(C)OC(=O)CC(NC(=O)OC(C)(C)C)c1ccccc1` (stereo not given)?
Env fusion inh: 11; Rce1 inhib: inactive; PABP FP inh: 4; CSC inhib: 2; eIF4H inh: 1

How did N#CC1=C(SCc2ccccc2)NC(=O)CC1c1ccc(O)cc1 (stereo not given) do in these assays?
UUG fidelity: -17; Rce1 inhib: inactive; MT1-MMP act inh: 0; PABP FP inh: 13; CSC inhib: -5; eIF4H inh: 9; MT1-MMP act inh RFP: -6

How did CCCOCC1CC2(SC(=Nc3ccc(C)cc3)NC2=O)C(=O)O1 (stereo not given) do in these assays?
UUG fidelity: -16; Env fusion inh: -66; Rce1 inhib: inactive; MT1-MMP act inh: -6; PABP FP inh: -16; CSC inhib: -18; eIF4H inh: -3; MT1-MMP act inh RFP: -4

How did O=C1CC(SCCc2nc3ccccc3[nH]2)C(=O)N1c1ccc(F)c(Cl)c1 (stereo not given) do in these assays?
UUG fidelity: -16; Rce1 inhib: inactive; MT1-MMP act inh: 3; CSC inhib: 17; MT1-MMP act inh RFP: 2

How did COc1cc(/C=C2/C(=N)N3C=CSC3=NC2=O)ccc1OCCOc1ccc(NC(C)=O)cc1 do in these assays?
Env fusion inh: 5; Rce1 inhib: inactive; MT1-MMP act inh: 1; PABP FP inh: 0; CSC inhib: -2; eIF4H inh: 2; MT1-MMP act inh RFP: 8

How did O=C(CCNC(=O)c1ccc(Br)cc1)NCC1CCCO1 (stereo not given) do in these assays?
UUG fidelity: -15; Env fusion inh: 7; Rce1 inhib: inactive; MT1-MMP act inh: 2; MT1-MMP act inh RFP: 3

Results for O=C(COC(=O)c1ccccc1)c1ccc(S(=O)(=O)N2CCCCC2)cc1 ?
UUG fidelity: -12; Env fusion inh: 12; MT1-MMP act inh: 2; MT1-MMP act inh RFP: 0

Results for O=[N+]([O-])c1cccc(S(=O)(=O)NC2CC3CCC2C3)c1 (stereo not given) ?
UUG fidelity: 14; Env fusion inh: 15; Rce1 inhib: inactive; MT1-MMP act inh: -2; PABP FP inh: 6; CSC inhib: -16; eIF4H inh: 0; MT1-MMP act inh RFP: -1

What do the screens show for `CCn1c(O)c(N=Nc2ccc3ccccc3n2)c2ccccc21`?
Env fusion inh: -124; Rce1 inhib: inactive; MT1-MMP act inh: -9; PABP FP inh: 7; CSC inhib: 26; eIF4H inh: 7; MT1-MMP act inh RFP: -2

What do the screens show for `O=[N+]([O-])c1ccc(S(=O)(=O)Nc2ccccn2)cc1`?
UUG fidelity: -2; Env fusion inh: 0; Rce1 inhib: inactive; MT1-MMP act inh: -3; PABP FP inh: -7; CSC inhib: -16; eIF4H inh: -5; MT1-MMP act inh RFP: -1

Results for COCCNC(=O)c1cc2ncc(Br)cn2n1 ?
UUG fidelity: -16; Env fusion inh: -19; Rce1 inhib: inactive; MT1-MMP act inh: 1; PABP FP inh: 4; CSC inhib: -12; eIF4H inh: -4; MT1-MMP act inh RFP: 3

What do the screens show for `Cc1ccc(-n2ncc3c(SCC(=O)NNC(=O)C(C)C)ncnc32)cc1`?
UUG fidelity: -8; Env fusion inh: -18; Rce1 inhib: inactive; MT1-MMP act inh: 1; PABP FP inh: 7; CSC inhib: -3; eIF4H inh: -3; MT1-MMP act inh RFP: 2

Results for CC(C)OC(=O)N(C)C[C@H]1OCc2cn(nn2)CCCC(=O)N([C@H](C)CO)C[C@@H]1C ?
UUG fidelity: -1; Env fusion inh: -62; MT1-MMP act inh: -1; MT1-MMP act inh RFP: 3

Results for Cc1ccc(NC(=O)C2CCCC2)cc1S(=O)(=O)N1CCOCC1 ?
UUG fidelity: -5; Env fusion inh: 31; MT1-MMP act inh: 13; MT1-MMP act inh RFP: 2

How did CCOC(=O)CSc1nnc(CSc2nc(N)c3c(C)c(C)sc3n2)n1-c1ccccc1 do in these assays?
Env fusion inh: 30; Rce1 inhib: inactive; MT1-MMP act inh: 15; PABP FP inh: -13; CSC inhib: -10; eIF4H inh: -4; MT1-MMP act inh RFP: 3

What do the screens show for `Cc1c(-c2cccc(NC(=O)c3cccs3)c2)nc2ncccn12`?
Env fusion inh: 7; Rce1 inhib: inactive; MT1-MMP act inh: 0; PABP FP inh: 5; CSC inhib: 27; eIF4H inh: 6; MT1-MMP act inh RFP: 0

Results for Cc1nn(-c2ccccc2)c(Cl)c1/C=N/NC(=O)c1ccccc1NS(=O)(=O)c1cccs1 ?
Env fusion inh: 3; Rce1 inhib: inactive; MT1-MMP act inh: 5; PABP FP inh: -17; CSC inhib: 37; eIF4H inh: 5; MT1-MMP act inh RFP: -6
